TRPML1 inh: qHTS for Inhibitors of the Human Mucolipin Transient Receptor Potential 1 (TRPML1); Mucolipin-1 (Homo sapiens), Q9GZU1; TRPML1-inducible cells, Ca2+ dye fluorescence, FDSS; stronger effect = lower value; inhibition of EC80 agonist-evoked calcium signal; activity change, negative = inhibition, % (concentration not given with the values); 0.02% of 390,000 active; in the data active means activity change below about -50%; inconclusive means about -30% to -50%; inactive means above about -30%;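 also: stimulus is agonist 54-4 at its EC80 concentration; % is scaled to controls: 0 for no effect and ±100 for the full control effect; compound concentration not given in the record; the text of the record puts the active cut at -80%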
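TRPML1-DL cells, Tet-induced overnight (~16 h, 37 °C) at 1,500 cells/well, were loaded with Ca8 no-wash dye plus quencher for 45-90 min at room temperature. Compounds were pinned during FDSS kinetic reading; agonist 54-4 at EC80 (4 uM final) then added.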
TRPV1 potentiator: HTS Assay for Compounds that Act as Potentiators of the Vanilloid Receptor 1. Transient receptor potential cation channel subfamily V member 1 (Homo sapiens), Q8NER1. potentiation, % at 8.33 µM. TRPV1-expressing cells, Fluo-8 calcium influx, capsaicin EC20 potentiation; host cell line not named in the record; control for the full effect not named in the record. 0.02% of 320,000 active; active means potentiation above 80%; inconclusive means 30% to 80%; inactive means below 30%; also: 0% is about no effect
Target sequence (Q8NER1 whole entry, looked up): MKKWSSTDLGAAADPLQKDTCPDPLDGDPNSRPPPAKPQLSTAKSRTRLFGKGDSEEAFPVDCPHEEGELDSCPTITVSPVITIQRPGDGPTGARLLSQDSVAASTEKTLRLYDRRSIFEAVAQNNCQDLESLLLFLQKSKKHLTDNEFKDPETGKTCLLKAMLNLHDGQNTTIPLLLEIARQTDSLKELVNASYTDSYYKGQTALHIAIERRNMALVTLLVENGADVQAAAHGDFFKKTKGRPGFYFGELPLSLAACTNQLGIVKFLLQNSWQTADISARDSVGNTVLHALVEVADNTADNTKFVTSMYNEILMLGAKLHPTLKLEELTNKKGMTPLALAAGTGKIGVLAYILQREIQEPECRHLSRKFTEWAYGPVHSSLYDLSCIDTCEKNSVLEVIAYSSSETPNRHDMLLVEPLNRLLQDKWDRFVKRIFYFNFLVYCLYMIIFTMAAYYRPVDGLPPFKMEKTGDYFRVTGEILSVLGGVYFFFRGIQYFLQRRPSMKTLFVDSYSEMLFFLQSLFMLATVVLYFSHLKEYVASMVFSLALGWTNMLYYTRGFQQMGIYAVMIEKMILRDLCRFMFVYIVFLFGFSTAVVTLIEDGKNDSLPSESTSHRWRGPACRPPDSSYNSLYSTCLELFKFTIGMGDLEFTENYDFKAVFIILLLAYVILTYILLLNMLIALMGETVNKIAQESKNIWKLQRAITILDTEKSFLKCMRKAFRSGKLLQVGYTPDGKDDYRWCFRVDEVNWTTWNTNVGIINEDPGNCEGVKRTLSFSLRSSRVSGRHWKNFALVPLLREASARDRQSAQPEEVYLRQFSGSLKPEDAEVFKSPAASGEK
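TRPV1-expressing cells were cultured overnight at 35.5C and loaded with Fluo-8 calcium dye for 40 to 90 min at room temperature. After a 10 s baseline, compound was added and calcium influx was read kinetically for 3 min (ex 480/em 520 nm).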
PINK1 expr mod: A Quantitative High throughput Screen to Identify Chemical Modulators of PINK1 Expression; PINK1 immunofluorescence, high-content cytometry, 24 h; Potency, µM (titrated, usually from 76.6 µM), for the others: top-dose activation (PINK1 increase), hits mostly activators; 0.2% of 410,000 active; AID 624263, 2012; active = well fitted activation curve with a large enough effect; inconclusive = small, poorly fitted or top-dose-only effect; inactive = flat fitted curve, though single readings scatter; cell line not stated here;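 also: potency is read from the fitted curve at half-maximal effect; % of control where 0% means no effect; nearly all actives have a fitted effect of over 65% in size; a mitochondrial uncoupler was the plate control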
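Decision-based qHTS: stable cells, 24 h exposure to five compound concentrations, CCCP as control. Fixed cells stained for PINK1 plus nuclear, mitochondrial and cell markers, cytometer read.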
TRPML1 ag: qHTS for Agonists of the Human Mucolipin Transient Receptor Potential 1 (TRPML1); 0.12% of 410,000 active; AID 624414, 2012; TRPML1-expressing cells, Ca2+ dye fluorescence, FDSS; host cell line not named in the record; reference of the full effect not given here; Mucolipin-1 (Homo sapiens), Q9GZU1; activation, % (test concentration not listed); in the data active = activation above about 50%; inconclusive = about 30% to 50%; inactive = below about 30%; also: 0% is about no effect; the text of the record puts the active cut at 80%
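In this qHTS format, compounds were pin-transferred onto Ca8-dye-loaded TRPML1-DL cells induced with Tet overnight, and intracellular Ca2+ fluorescence was recorded kinetically for 110 s after a 10 s baseline. A subsequent 4uM final 54-4 (EC80) addition followed by a second 110 s read served as the antagonist phase.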
ClpP mod: qHTS Assay for Activators of ClpP | ATP-dependent Clp protease proteolytic subunit (Bacillus subtilis (strain 168)), P80244 | 1.9% of 340,000 active | purified B. subtilis ClpP, FRET peptide cleavage, 20 min | Potency, µM (titrated, usually from 57.5 µM), without a hit: at the highest dose activity change, negative = active; active = well fitted falling curve with a large enough effect; inconclusive = small, poorly fitted or top-dose-only effect; inactive = no such curve, though single readings can be large or run the other way; also: potency is read from the fitted curve at half-maximal effect; the source files actives as falling curves though it sought activators and does not explain the sign; nearly all actives have a fitted effect of over 65% in size; many hits overshoot -100%
Target sequence (P80244 whole entry, looked up): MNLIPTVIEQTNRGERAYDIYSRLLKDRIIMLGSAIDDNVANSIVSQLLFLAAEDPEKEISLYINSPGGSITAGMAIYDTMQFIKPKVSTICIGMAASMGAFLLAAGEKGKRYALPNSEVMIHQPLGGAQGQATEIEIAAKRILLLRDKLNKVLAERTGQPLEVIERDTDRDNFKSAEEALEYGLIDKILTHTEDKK
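Purified B. subtilis ClpP, 10 microg/mL final in Tris/HCl pH8 with KCl, BSA, glycerol and Tween-20, cleaved an Abz/nitrotyrosine-quenched decapeptide. Fluorescence (ex 320, em 430) was read at 0 and 20 min at room temperature. Delta was normalized to 5.8 microM ADEP and DMSO/no-enzyme controls.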
Menin MLL FP FL: qHTS Assay for Inhibitors Targeting the Menin-MLL Interaction in MLL Related Leukemias: Competition With Fluorescein Labeled MLL-derived Peptide. Fluorescence polarization, fluorescein-MLL peptide displacement from menin. 290,000 tested, under 10 active. FP activity change, % at 61.4 µM. AID 1766, 2009; inconclusive = falling polarisation curve, or a change in total fluorescence; inactive = total fluorescence flat and polarisation flat or rising; no compound was filed as active; the % refers to the polarisation; negative = inhibition;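 also: % of control where 0% means no effect; inhibitors lower the polarisation; unlabelled MLL peptide was the positive control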
Sfp inh: qHTS Assay for Inhibitors of Bacillus subtilis Sfp phosphopantetheinyl transferase (PPTase). Potency, µM, for inactives: max response, negative = inhibition, actives largely listed as inhibitors. AID 1490, 2009. Biochemical Sfp PPTase activity, qHTS. 4'-phosphopantetheinyl transferase ffp (Bacillus subtilis), Q9F4F7. 3.5% of 310,000 active; active = well fitted inhibition curve with a large enough effect; inconclusive = small, poorly fitted or top-dose-only effect, or another doubt; inactive = no such curve, though single readings can be large or run the other way;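 also: the enzyme is Sfp with the accession as filed and its product quenches rhodamine fluorescence; potency is read from the fitted curve at half-maximal effect; 0% = enzyme reaction without inhibitor and -100% = no enzyme wells; top concentration of the series not given in the record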
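With Hepes-Na pH 7.6 buffer containing 10 mM MgCl2, Sfp (15 nM) modified BHQ-2-YbbR (12.5 uM) using rhodamine-CoA (5 uM). Two reads 30 minutes apart at 525/598 nm yielded each well's rate.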
* marks the source's active call; other numbers are inactive results; ? = inconclusive; / = no result given; & = joins results of further samples; [ ] = remark or other dose.

cpd	SMILES	Menin MLL FP FL	TRPML1 inh	PINK1 expr mod	TRPV1 potentiator	ClpP mod	Sfp inh	TRPML1 ag
1	CCOc1ccccc1C(=O)N(C)CC(=O)Nc1ccc(OC)cc1	5.4	11.8	1.1%	7.3	-0.9%	4.2%	-0.5
2	CN(C)c1ccc(/C=N\NC(=S)SCN2C(=O)C3CCC(C)(C2=O)C3(C)C)cc1 (configuration not stated)	-0.4	8.9	-0.8%	3.6	-11.9%	1.8%	3.3
3	CC(=O)OC1C2CCC1C([N+]1(C)CCCCC1)CC2 (configuration not stated)	-1.0	-5.5	2.9%	-1.3	/	8.2%	-0.4
4	Cc1ccccc1C(=O)Nc1ccc(O)c2c(=O)cc(-c3ccccc3Cl)oc12	-0.4&-4.7	4.7&-7.1	-0.1%	4.8	-3.5%	?	2.1&2.4
5	O=C(NCCCCCCCCNC(=O)c1cccc2ccccc12)c1cccc2ccccc12	/	-15.6	?	/	-22.7%	/	1.3
6	COc1ccc(S(=O)(=O)Cc2ccc(C(=O)NC3CCCCC3)o2)cc1	/	1.7&1.4	0.4%&0.1%	10.4	-4.5%&-3.8%	9.7%	0.5&-0.2
7	CCOC(=O)c1c(C)[nH]c(C)c1C(=O)COC(=O)c1ccc(OC)cc1	-0.1	15.7	2.3%	9.9	/	4.1%	-0.7
8	CCOC(=O)c1cnc(SCC(=O)N2CCc3ccccc32)nc1N	2.2	-13.8	4.3%[38.3 µM]	8.5	-0.4%	-3.8%	0.1
9	COc1ccc(CCNc2ncnc3c2nnn3C)cc1	/	27.3	9.8%	/	2.4%	/	3.7
10	CCCN(CCC)CCSc1nc(O)c(C(C)C)c(=O)[nH]1	0.9	10.3	2.6%	-2.7	0.2%	-6.5%	0.3
11	CCCC(=O)Nc1ccc2nc(SCCOc3ccccc3)sc2c1	/	19.8	5.0%	/	1.3%	/	2.4
12	CCOc1ccc(-c2n[nH]c(=S)c3ccccc23)cc1	2.0	4.1	6.7%	-0.7	/	3.4%	2.2
13	CCOc1ccc(NC(=O)COC(=O)c2c(OC)cccc2OC)cc1	-0.5	-0.1	0.1%	4.1	-1.9%	1.9%	-0.4
14	Cc1cccc(N(CC(N)=O)C2SC(=O)NC2=O)c1 (configuration not stated)	1.2	-1.2	-2.2%	16.2	1.7%	11.4%	-0.3
15	CCOc1c(C)cc(S(=O)(=O)NCc2cccnc2)c(C)c1C	-1.7	1.0	0.7%	-16.1	-2.2%	-1.9%	0.3
16	Nc1nc(N)c2c(Oc3ccc(F)cc3)cccc2n1	/	/	0.9%	/	4.2%	/	?
17	Cc1ccc(-n2nc3cc(C)c(N)cc3n2)cc1	-3.1	13.0	-0.3%	-5.9	56.4%	-18.1%	-0.3
18	O=c1[nH]cc(N2CCCCCC2)c(=O)[nH]1	0.0	-8.1	0.5%	-1.9	/	-3.7%	0.1
19	CC(=O)N1CC[n+]2c(-c3ccc(Cl)cc3Cl)csc21	3.5	-4.6	-0.7%	0.0	-0.7%	31.6µM*	0.1
20	CC(=O)Nc1ccc(NC(=O)CS(=O)(=O)Cc2ccccc2)cc1	/	5.8	-1.9%	10.2	-1.3%	19.7%	0.5
21	CCOc1cc(NC(=O)c2ccco2)c(OCC)cc1NC(=O)CCc1ccc(OC)cc1	-0.1	/	/	7.7	/	3.4%	/
22	COc1ccc(-n2c(=O)c3c(c4cc(OC)ccc4n3C)n(Cc3c(F)cccc3Cl)c2=O)cc1	/	-15.7	1.8%	/	-12.1%	/	0.1
23	O=C(CNC(=O)c1ccc2ccccc2c1)NC1CCCCC1	/	14.3	2.0%	/	-17.4%	/	0.7
24	Cc1cc(SCc2ccc(Cl)cc2Cl)nc(=O)[nH]1	17.2	3.4	1.2%	-4.0	-0.9%	13.5%	0.8
25	O=C(CN1CCN(C(=O)c2ccco2)CC1)Nc1ccc2c(c1)OCO2	/	12.6	0.6%	/	0.7%	/	-0.1
26	O=C(CN1CCCC1)NCC(=O)Nc1ccc(F)cc1	-1.3	-11.8	0.7%	-3.2	/	18.1%	-0.6
27	CCO[C@H]1OC(C(=O)N2CCOCC2)=C[C@@H](C2CC2)[C@@H]1CCCO	0.5	5.6	-1.9%	9.5	13.7%	18.5%	-0.9
28	Cc1cc(S(=O)(=O)N2CCOCC2)ccc1OCC(=O)Nc1ccccc1F	/	-0.1	-0.2%	4.9	/	-5.1%	-0.5
29	FC(F)(F)c1ccccc1CNCc1ccncc1	-4.1	-16.5	2.3%	-7.0	0.1%	?	0.0
30	CCCCc1nc2cc(C(=O)N3CCN(c4nc(C)cnc4C)CC3)ccc2o1	/	18.2	0.0%	-0.3	-9.1%	14.1%	2.0
31	CCc1c(C)sc(NC(=O)Cn2nc(C(F)(F)F)c3c2CCCC3)c1C#N	5.3	-20.2	/	-12.9	7.4%	39.8µM*	0.2
32	CC1CCCCC1NC(=O)COc1ccc(C#N)cc1 (configuration not stated)	/	31.9	0.6%	/	-7.1%	/	-0.1
33	N#Cc1cc2c(=O)n3ccccc3nc2n(CCN2CCOCC2)c1=O	-0.6	/	/	-10.5	/	12.2%	/
34	CCCOc1ccc(C2C(C(=O)OC)=C(C)N=C3SCCC(=O)N32)cc1OCC (configuration not stated)	1.2	4.8	1.6%	1.7	-2.9%	7.6%	1.1
35	c1ccc(SSc2ccccn2)nc1	/	0.4	-0.7%	/	/	/	0.1
36	CCC1CCCCN1CCCCOc1cccc(Cl)c1 (configuration not stated)	-0.6	24.0	-2.2%	-1.4	-4.9%	-16.5%	0.6
37	O=C(CN(C(=O)c1csnn1)c1ccccc1F)NCc1ccccc1	?	-12.3	1.9%	28.8	/	4.5%	-0.4
38	Cc1ccc2[nH]c3c(c2c1)CCCC3C(N)=O (configuration not stated)	-3.2	-4.5	-1.1%	7.3	-12.1%	16.0%	0.2
39	CCOc1ccccc1NC(=O)c1cc(-c2ccccn2)nc2ccccc12	/	60.8	3.2%	-11.6	-1.1%	/	1.1
40	COC(=O)c1ccc(COc2ccc(C(C)(C)C)cc2)o1	0.9	-4.5	3.7%	0.9	-1.8%	6.8%	1.3
41	CC(Sc1nc(=O)cc(N)n1CCc1ccccc1)C(=O)Nc1ccccc1C#N (configuration not stated)	/	-15.0	-0.6%	/	-1.1%	/	1.1
42	CCC(CC)COC(=O)C1=C(C)NC(=O)NC1c1ccc2c(c1)OCO2 (configuration not stated)	-0.7	0.2	1.4%	7.1	/	-4.6%	-0.4
43	COc1ccccc1Nc1ncnc2nc[nH]c12	-0.4	-13.5	-1.6%	-19.3	1.0%	13.2%	-0.2
44	COC(=O)C1CCN(Cc2cn(-c3ccccc3)nc2-c2ccc3c(c2)OCO3)CC1	5.3	34.6	1.3%	0.0	1.3%	-2.1%	0.1
45	Cc1onc(-c2ccccc2)c1C(=O)NCC1CCCO1 (configuration not stated)	-0.4	17.8	2.6%	-4.9	-0.9%	19.1%	0.9
46	COCCCN1C(=O)C(=O)/C(=C(/O)c2ccc(OCC(C)C)cc2C)C1c1cccnc1 (configuration not stated)	2.5	35.4	-2.5%[38.3 µM]	6.9	-0.3%	9.8%	4.9
47	CC(C)(C)C1(O)CC(C(F)(F)F)=NN1C(=O)Cc1ccc([N+](=O)[O-])cc1 (configuration not stated)	1.4	-16.6	7.0%	-14.6	/	18.4%	1.1
48	COc1ccc(-c2noc(CCC(=O)NCCCN3CCC(C)CC3)n2)cc1	2.2	-1.3	-2.6%	0.3	-1.2%	6.8%	-0.5
49	CCCCN1C(=O)c2ccc(C(=O)OCC(=O)N3CCN(c4ccccc4)CC3)cc2C1=O	/	-7.6	2.9%	8.2	-0.1%	/	0.1
50	Cc1ccc(NC(=O)CN(C)C(=O)CSc2nnc(N)s2)cc1	/	31.4	0.8%	14.5	-0.8%	/	1.8

Remaining list, next part:
cpd	SMILES	Menin MLL FP FL	TRPML1 inh	PINK1 expr mod	TRPV1 potentiator	ClpP mod	Sfp inh	TRPML1 ag
51	O=C(CSc1nnc(-c2cccc(F)c2)o1)N1CCCC1	/	5.8	0.0%	-0.8	/	10.1%	-0.3
52	O=C(NCCc1cccs1)c1ccc(CS(=O)Cc2cccc(Cl)c2)o1 (configuration not stated)	/	-4.3	1.5%	/	0.4%	/	-0.7
53	CCCCC(=O)Nc1cccc(NC(=O)c2cccnc2Cl)c1	3.2	-9.9	-0.4%	0.9	0.2%	-5.3%	2.1
54	O=C(Nc1ccc(-n2nncc2-c2ccccc2)cc1)c1cccc(F)c1	/	-16.9	-0.5%	/	-1.2%	/	0.7
55	O=S(=O)(Nc1nccs1)c1ccc2c(c1)OCCO2	6.0	-6.1	1.7%[38.3 µM]	-0.3	1.8%	3.9%	-0.4
56	Cc1ccccc1OCCC(=O)Nc1ccc(F)c(Cl)c1	-5.7	7.8	?	-16.8	-0.3%	-24.5%	0.2
57	CCn1c(O)c(N=NC(=O)Cc2csc(N3CCOCC3)n2)c2ccccc21	1.3	9.1	3.2%	6.4	/	2.1%	-0.9
